ClpP mod: qHTS Assay for Activators of ClpP | Potency, µM (top dose mostly 57.5 µM), inactives show top-dose activity change, negative = active | 1.9% of 340,000 active | purified B. subtilis ClpP, FRET peptide cleavage, 20 min | AID 651965, 2013 | ATP-dependent Clp protease proteolytic subunit (Bacillus subtilis (strain 168)), P80244; active = well fitted falling curve with a large enough effect; inconclusive = small, poorly fitted or top-dose-only effect; inactive = no such curve, though single readings can be large or run the other way; also: potency is read from the fitted curve at half-maximal effect; the source files actives as falling curves though it sought activators and does not explain the sign; nearly all actives have a fitted effect of over 65% in size; many hits overshoot -100%
Target sequence (P80244 whole entry, looked up): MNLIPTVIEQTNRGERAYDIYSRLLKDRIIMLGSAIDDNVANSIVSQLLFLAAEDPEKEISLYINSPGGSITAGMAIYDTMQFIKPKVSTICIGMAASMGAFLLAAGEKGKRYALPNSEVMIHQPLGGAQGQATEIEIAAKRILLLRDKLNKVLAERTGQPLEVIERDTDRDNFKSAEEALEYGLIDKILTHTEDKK
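Buffer: 100 mM Tris/HCl pH8, 100 mM KCl, 0.05% low protease BSA, 2.5% glycerol, 0.01% Tween-20. ClpP 10 microg/mL final; 20 min RT; delta FRET normalized to ADEP and DMSO controls.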
Menin-MLL FL inh: menin-MLL binding inhibition, fluorescein peptide. Fluorescence polarization, fluorescein-MLL peptide displacement from menin. FP activity change, % at 61.4 µM. 290,000 tested, under 10 active. AID 1766; inconclusive = falling polarisation curve, or a change in total fluorescence; inactive = total fluorescence flat and polarisation flat or rising; no compound was filed as active; the % refers to the polarisation; negative = inhibition;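 also: % of control where 0% means no effect; inhibitors lower the polarisation; unlabelled MLL peptide was the positive control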
TRPML1 inh: human mucolipin-1 channel inhibition. Q9GZU1. TRPML1-inducible cells, Ca2+ dye fluorescence, FDSS; active compounds read low; inhibition of EC80 agonist-evoked calcium signal. activity change, negative = inhibition, % (no concentration beside the values). 0.02% of 390,000 active. AID 624415; in the data active means activity change below about -50%; inconclusive means about -30% to -50%; inactive means above about -30%;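 also: stimulus is agonist 54-4 at its EC80 concentration; % is scaled to controls: 0 for no effect and ±100 for the full control effect; compound concentration not given in the record; the text of the record puts the active cut at -80%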
Target sequence (Q9GZU1 whole entry, looked up): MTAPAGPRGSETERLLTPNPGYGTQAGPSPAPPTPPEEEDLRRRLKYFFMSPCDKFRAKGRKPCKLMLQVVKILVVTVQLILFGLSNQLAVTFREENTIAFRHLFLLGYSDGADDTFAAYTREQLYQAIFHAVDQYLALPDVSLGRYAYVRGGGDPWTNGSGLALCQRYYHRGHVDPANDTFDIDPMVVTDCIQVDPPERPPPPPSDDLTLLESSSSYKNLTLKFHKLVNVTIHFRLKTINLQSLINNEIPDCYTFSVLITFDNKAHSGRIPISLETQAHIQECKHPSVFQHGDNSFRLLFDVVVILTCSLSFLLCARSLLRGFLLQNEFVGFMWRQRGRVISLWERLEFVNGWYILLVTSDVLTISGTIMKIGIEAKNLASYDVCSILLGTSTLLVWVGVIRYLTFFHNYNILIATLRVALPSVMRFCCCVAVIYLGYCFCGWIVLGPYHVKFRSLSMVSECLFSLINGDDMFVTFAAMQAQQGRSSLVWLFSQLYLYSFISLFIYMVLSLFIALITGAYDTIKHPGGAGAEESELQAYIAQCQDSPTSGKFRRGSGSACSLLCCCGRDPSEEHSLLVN
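Tet-induced TRPML1-DL cells loaded with Ca8 no-wash calcium dye were read kinetically on FDSS. Compound addition was followed by EC80 agonist 54-4 (4 uM final); inhibition was read over 110 s.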
gsp antag: antagonists of gsp mutant (McCune-Albright syndrome). gsp-mutant cells, cAMP HTRF, 30 min; control for the full effect not named in the record. Potency, µM (doses to about 76.9 µM), for the others: at the highest dose activity change, negative = inhibition, most hits filed as inhibitors. 0.4% of 340,000 active. AID 624288; active = falling curve of any shape with a large fitted effect; inconclusive = falling curve, mostly with a smaller effect; inactive = flat or rising curve; cell line not stated here;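 also: intracellular cAMP measured with PDE inhibitor Ro 20-1724 present during compound exposure; potency is read from the fitted curve at half-maximal effect; % is scaled to controls: 0 for no effect and ±100 for the full control effect; nearly all actives have a fitted effect of over 65% in size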
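Cells in G418 medium, seeded 16-24 h, 37C; buffer exchange to DPBS + 1 mM CaCl2, 0.5 mM MgCl2, 0.05% BSA; cpds in DMSO + […] (300 uM stock), 30 min 37C; HTRF cAMP detection.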
TRPML1 ag: human mucolipin-1 channel agonism; Q9GZU1; TRPML1-expressing cells, Ca2+ dye fluorescence, FDSS; host cell line not named in the record; reference of the full effect not given here; activation, % (test concentration not listed); 0.12% of 410,000 active; in the data active = activation above about 50%; inconclusive = about 30% to 50%; inactive = below about 30%; also: 0% is about no effect; the text of the record puts the active cut at 80%
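TRPML1-DL cells, Tet-induced overnight (~16 h, 37 degrees C), loaded 45-90 min at room temperature with Ca8 no-wash calcium dye plus quencher. FDSS fluorescence: 10 s baseline, compound pin-transfer, 110 s agonist read, then EC80 54-4 (4uM final) and 110 s antagonist read.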
gsp agonist: activates gsp, the McCune-Albright syndrome mutation. Potency, µM (highest dose often 76.9 µM), without a hit: at the highest dose activation (cAMP increase), most hits filed as activators. gsp mutant cells, cAMP HTRF, 30 min; control for the full effect not named in the record. 0.13% of 340,000 active. AID 624287; active = well fitted activation curve with a large enough effect; inconclusive = small, poorly fitted or top-dose-only effect, or another doubt; inactive = no such curve, though single readings can be large or run the other way; cell line not stated here;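 also: phosphodiesterase inhibitor Ro 20-1724 added with compounds to block cAMP breakdown; potency is read from the fitted curve at half-maximal effect; nearly all actives have a fitted effect of over 60% in size; about a fifth of the inactives were tested at one dose only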
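Cells in DMEM/10% FBS with G418 were pretreated with compounds in DMSO plus […] (300 uM stock) for 30 min at 37C. cAMP was measured by HTRF (cAMP-d2 plus anti-cAMP antibody-K) after 30 min at room temperature.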
Active calls of the source: *; ? = inconclusive; / = not tested or not shown; & = joins results of further samples; [ ] = another dose, or the depositor's remark.

SMILES	ClpP mod	Menin-MLL FL inh	TRPML1 inh	gsp antag	TRPML1 ag	gsp agonist
Cc1ccccc1S(=O)(=O)Cc1ccc(C(=O)NCCc2ccccc2)o1	-0.5%&0.3%	1.0	5&10	12%	-0.9&0.9	?
c1ccc(COc2ncnc3c2ncn3CCCNCC2CCCO2)cc1 (stereo unspecified)	-1.4%	/	6	0%	0.1	/
CCCCCCSc1nc(N)c2c3c(sc2n1)CCCC3C (stereo unspecified)	-10%	/	2	/	1.6	/
COc1ccc(OC)c(S(=O)(=O)N2CCCCC2C(=O)O)c1 (stereo unspecified)	0.5%	0.5	7	10%	-0.5	1%
CNC(=S)N(Cc1ccc(OC)cc1)Cc1cc2ccc(C)cc2[nH]c1=O	/	-1.0	2	-13%	4.5	0%[15.4 µM]
COc1cccc(CC2(CO)CCN(Cc3cnc(N4CCOCC4)s3)CC2)c1	/	0.9	-19	-2%	-0.3	-37%
CCCCN1c2ccccc2N(CCCO)c2cc(C)nnc21	-20%	2.9	43	0%	0.0	-11%
O=C(O)c1ccc(CN2C[C@@H](CO)O[C@@H](n3cnc4c(NCc5ccco5)ncnc43)C2)cc1	-1.0%	/	28	/	-0.1	/
O=C(c1ccccc1)N1CCN(C2C3CC4CC(C3)CC2C4)CC1 (stereo unspecified)	1.7%	0.8	-1	1%	2.2	-33%[inhibitor]
COc1cccc(C(=O)NNC2=C(C(=O)C(F)(F)F)CCC2)c1	/	3.9	1	4%	-0.5	-35%[inhibitor]
COc1cccc(C(=O)Nc2nc3c(c(=O)[nH]2)CCCC3)c1	-6.5%	-0.2	16	-9%	-0.8	-18%
CCNC(=O)C(=O)Nc1ccc([N+](=O)[O-])cc1	/	-0.2	-5	3%	1.6	27%
COC(=O)C1=C(C(=O)OC)[C@@H]2Nc3ccccc3[C@@]23C[C@@H](C(=O)OC)N(C(=O)c2ccc(Br)cc2)C3=N1	2.0%	7.1[11.7 µM]	-4	-16%	-0.3	-9%
Cc1cc(C)cc(CC2CC(=O)N(c3nc(C)cc(C)n3)C2=O)c1 (stereo unspecified)	-3.6%	-1.4	-21	9%	1.2	-7%[15.4 µM]
COc1cc(CNC(C)(C)CO)cc(Br)c1OCc1ccc(Cl)cc1	-2.7%	2.4	37	23%	1.8	3%
O=C(CN1C(=O)NC2(CCCCC2)C1=O)Nc1ccc(N2CCCCC2)cc1	/	/	-18	3%	0.3	?
O=C1CSC(c2cccc([N+](=O)[O-])c2)N1Cc1ccccc1 (stereo unspecified)	/	0.4	-17	-1%	-0.5	-61%[inhibitor]
N#Cc1ccccc1C[C@H](N)C(=O)NC[C@H]1O[C@@H](n2ccc(N)nc2=O)[C@H](O)[C@@H]1O	-5.3%	/	20	/	0.3	-32%[inhibitor]
COc1cc(NC(=O)C/C(C)=N/NC(=O)C(OC)c2ccccc2)c(OC)cc1Cl (stereo unspecified)	-0.5%	6.7	-7	-8%	0.0	-17%
CC1CCc2c(sc(NC(=O)Cc3ccccc3)c2C(=O)Nc2ccc(Cl)cc2)C1 (stereo unspecified)	-18%	/	67	/	3.0	/
CCOC(=O)C1CCN(c2ncnc3c2cnn3-c2ccc(Cl)cc2)CC1	-11%	0.8	21	6%	0.9	-2%
CC(C)c1ccc(NC(=O)CSC2=Nc3ccccc3C3=NC(CC(=O)NCCc4ccccc4)C(=O)N23)cc1 (stereo unspecified)	-13%	/	10	/	0.4	/
CC1CCN(C(=O)C(C)Sc2nc(-c3ccccc3)cc(C(F)(F)F)n2)CC1 (stereo unspecified)	-10%&0.5%	0.2	40&32	?	1.8&1.7	1%
CNc1ccn(C2CCCO2)c(=O)n1 (stereo unspecified)	-0.8%	0.4	-2	8%	0.1	-2%
O=C(CSc1nc2ccccc2c(=O)n1CCCO)NC1CC1	-2.8%	/	6	4%	-0.7	-34%[inhibitor]
COCCOCC(O)CN1CCN(c2ccc(C)cc2)CC1 (stereo unspecified)	-0.7%	-0.9	-9	0%	-0.4	-13%
O=C(OC1CCc2ccccc2C1=O)c1ccccc1O (stereo unspecified)	8.2%	-1.3	12	-11%	1.0	28%
COc1ccc(NC(=O)NCCN2C(=O)C3C4C=CC(C4)C3C2=O)cc1 (stereo unspecified)	1.9%	0.4	8	4%	0.2	5%
Cc1ccc(NC(=S)N/N=C/c2ccc(OCCC(C)C)cc2)c(C)c1	-6.1%	-5.5	-7	5%	0.6	-54%[inhibitor]
CCC(CC)C(=O)Nc1c(C)n(C)n(-c2ccccc2)c1=O	-3.5%	21	-6	-1%	3.9	1%
COc1ccc(N=c2oc3cc(O)ccc3cc2C(=O)NCC2CCCO2)cc1 (stereo unspecified)	-20%	-0.3	3	-14%	-1.1	12%
Cc1noc(C)c1COc1ccc(C(=O)OCC(=O)NC2CCCCC2C)cc1 (stereo unspecified)	1.2%	1.8	1	-15%	3.8	-32%[inhibitor]
CC(=O)Nc1cccc(C(=O)OC(C(=O)c2ccc(C)cc2)c2ccccc2)c1 (stereo unspecified)	-1.6%	5.1	15	?	0.6	-37%[inhibitor]
Cc1onc(-c2ccccc2)c1-c1ccnc(N)n1	-1.4%	2.5	4	0%	-0.7	-1%[15.4 µM]
CCCCNC(=O)COC(=O)c1c2c(nc3ccccc13)/C(=C/c1cccs1)CC2	-0.8%	?	51	-1%	1.2	-4%[15.4 µM]
Cc1ccc(OCCCn2c(C3CC(=O)N(c4cccc(Cl)c4)C3)nc3ccccc32)c(C)c1 (stereo unspecified)	-2.9%	/	39	/	1.9	/
Cc1nnc(NC(=O)c2ccc(S(=O)(=O)N(C)Cc3ccccc3)cc2)o1	0.9%	-0.3	54	-17%	-0.8	-30%
CCCc1c(O)nc(SC2CC(=O)N(c3cc(OC)ccc3OC)C2=O)[nH]c1=O (stereo unspecified)	0.1%	-0.8	8	-6%	-0.5	-41%
O=C(NCCCn1ccnc1)c1cn(-c2ccccc2)nc1-c1ccccc1	0.5%	-0.7	0	-1%	0.3	8%
Cc1ccccc1Nc1nc(N)nc(CN2CCN(c3ccccn3)CC2)n1	-6.1%	13	-16	10%	-0.4	6%
Cn1cnnc1Sc1ccc(C(=O)OCC(=O)Nc2ccccc2)cc1[N+](=O)[O-]	1.1%	12	10	-8%	1.7	8%
COc1cccc(CN(C)C(=O)CC[C@H]2O[C@@H](n3ccc(=O)[nH]c3=O)[C@H](O)[C@@H]2O)c1	3.1%	/	-2	/	-0.4	/
COc1cc(C(=O)Nc2cccc(-c3nc4cc(C)ccc4o3)c2)cc(OC)c1OC	113%	2.9	-14	-3%	0.6	?
O=C(N/N=C/c1cccc(F)c1)c1csc2c1CCCC2	1.8%	0.5	22	-23%	0.5	1%
Cc1cc(N/C=C/C(=O)c2ccc(Br)cc2)no1	-4.1%	0.8	-2	8%	0.4	-16%
Cc1cccc(C)c1NC(=O)c1cccc2c1C(=O)N(C1CCCCC1)C2	/	0.0	-1	-18%	0.2	3%
COc1ccc(/C=N/NC(=O)CN2CCS(=O)(=O)CC2)cc1	1.6%	0.2	-9	9%[15.4 µM]	0.4	-11%
Cc1ccc(C)c(N2N=C(C(=O)Nc3ccc(N4CCOCC4)cc3)CCC2=O)c1	/	/	16	-2%	1.2	-9%[15.4 µM]
Cc1ccc(C(=O)NCCn2c(C)cc3ccccc32)cc1C	-2.3%	/	-16	/	0.3	/
Cc1ccccc1OCc1ccc(C(=O)N2CC(C)OC(C)C2)o1 (stereo unspecified)	/	0.8	5	-11%	2.6	-45%[15.4 µM]
COc1cccc(CC(NC(C)=O)C(=O)NC2CCN(C(=O)c3ccc(Cl)cc3)CC2)c1 (stereo unspecified)	/	-1.3	14	5%	0.0	22%
CCN(c1ccccc1)c1ncnc2c1cnn2-c1ccc(OC)cc1	?	/	-23	/	1.7	/
Cc1cc(=O)n2nc(N3CCC(C(=O)Nc4ccc(C)c(Cl)c4)CC3)sc2n1	-1.8%	/	?	/	-1.1	/
NNC(=O)CNC(=O)c1ccccc1F	-1.0%	0.3	-4	17%	0.3	?
CC(C)NS(=O)(=O)c1ccc(CCC(=O)N2CCC(C(N)=O)CC2)cc1	/	-0.3	2	1%	-0.2	-54%[inhibitor]
CNC(=O)CSc1nc2[nH]ncc2c(=O)[nH]1	0.3%	-0.3	7	18%	-0.2	6%
CC1CCCN(C(=O)CN(c2ccccc2)S(=O)(=O)c2ccc(F)cc2)C1 (stereo unspecified)	0.1%	/	14	-4%	4.7	-1%
O=C(Cn1cnc2sc(-c3ccccc3)cc2c1=O)NCc1ccccc1	-21%	5.8	33	18%	1.6	8%
Cc1ccc(NC(=O)C(C)OC(=O)c2ccc(Cl)nc2)cc1S(=O)(=O)N1CCOCC1 (stereo unspecified)	28µM*	/	-9	-10%	1.4	-14%
COC(=O)c1ccc(OC)c(OC2CCCC2)c1	-6.0%	2.8	5	1%	-1.2	-1%
Later entries:
SMILES	ClpP mod	Menin-MLL FL inh	TRPML1 inh	gsp antag	TRPML1 ag	gsp agonist
CNC(=S)N1CCC(NC(=O)C23CC4CC(CC(C4)C2)C3)CC1	/	1.0	6	6%	1.1	-5%[15.4 µM]
CCCCn1c(NC(=O)c2ccccc2)nc2ccccc21	-5.3%	-1.3	0	-1%	2.0	-4%
O=C(O)c1ccc(NC(=S)NC2CCCCC2)cc1	0.3%	0.5	25	4%	1.3	-31%
O=S(=O)(c1cnc[nH]1)N1CCCCCC1	0.4%	0.2	2	-13%	-0.2	-24%
CCC(C)NC(=O)c1cn(CC)c2cc(N3CCN(C)CC3)c(F)cc2c1=O (stereo unspecified)	4.0%	2.5	-11	0%	4.7	23%
COc1cc(C(=O)OCC(=O)NCc2ccco2)cc(OC)c1OC	?	1.4	-11	5%	-0.1	-7%
O=C(NCc1ccc2c(c1)OCO2)C1CCCN1S(=O)(=O)c1ccc(F)cc1 (stereo unspecified)	/	-4.8	-12	7%	0.5	-4%[15.4 µM]
O=C1CCN(CCc2ccccc2)CCN1CCOc1ccccc1	-0.3%&-3.0%	-5.6	-3	3%	0.2&0.9	/
CC1CCCCN1S(=O)(=O)c1ccc(C(=O)Nc2ccccc2-c2nc3ccccc3[nH]2)cc1 (stereo unspecified)	13µM*	/	13	-5%	-0.4	-4%
Cc1occc1-c1nnc(SCC(=O)N(C)c2ccccc2)o1	1.1%	/	2	8%	-1.3	3%

Copied from the list:
CC(=O)Nc1cccc(C(=O)OC(C(=O)c2ccc(C)cc2)c2ccccc2)c1 (stereo unspecified) in gsp agonist → -37%[inhibitor]
CNC(=S)N1CCC(NC(=O)C23CC4CC(CC(C4)C2)C3)CC1 in Menin-MLL FL inh → 1.0

Compound activity from PubChem BioAssay.
